From PubChem
CDC25B-CDK2 inh: human CDC25B-CDK2/CyclinA binding inhibition; HTRF CDC25B-CDK2/CyclinA binding, anti-His/anti-Flag; active compounds read high; z-score (concentration not given with the values); AID 1259370; P30305+P24941; 0.72% of 94,000 active;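 further: score is relative to mean and SD of negative controls; strong numbers were not always called active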
HIV TAR-Tat: HIV-1 TAR-Tat binding disruption; 0.6% of 100,000 active; z-score (no concentration beside the values); AID 1259389; HIV-1 TAR RNA, Tat peptide displacement FRET; active compounds read high;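 further: score is relative to mean and SD of negative controls; some compounds called inactive have numbers as strong as hits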
Starred values were filed as active, the others as inactive.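 How the source made its calls: active means z-score from 3 up in half or more of its runs; inactive means the rest.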 This is a random part of the collection (roughly 0.87% active in at least one column).

Results for O=C(NCc1ccccc1Cl)c1cc2n(n1)C(C(F)(F)F)CC(c1ccc3c(c1)OCO3)N2 (stereo not drawn) ?
HIV TAR-Tat: 2.5

What do the screens show for `CCOCCCNC(=O)CN1c2ccc(Br)cc2-c2ccccc2S1(=O)=O`?
CDC25B-CDK2 inh: -1.4; HIV TAR-Tat: 0.45

What do the screens show for `Brc1cccc(CSc2ncnc3nc[nH]c23)c1`?
CDC25B-CDK2 inh: 0.78; HIV TAR-Tat: 0.05

What do the screens show for `COc1cc(C(Nc2cc(C)ccn2)c2ccc3ccc(C)nc3c2O)cc(OC)c1OC` (stereo not drawn)?
CDC25B-CDK2 inh: -1.1

Results for CC(C)C(C(=O)N1CCCCC1)N1Cc2ccccc2C1=O (stereo not drawn) ?
HIV TAR-Tat: -1.8

How did O=C(NCCCN1CCOCC1)C1CCN(C(=O)c2ccc(-n3ccc4ccccc43)s2)CC1 do in these assays?
HIV TAR-Tat: 0.2

What do the screens show for `Cc1ccc(-c2cnc(C3CC3)o2)cc1S(=O)(=O)Nc1cccc(C)c1C`?
HIV TAR-Tat: 0.05

What do the screens show for `Cn1nc(C(=O)NCCC2=CCCCC2)c2c1-c1ccccc1OC2`?
CDC25B-CDK2 inh: -1.1; HIV TAR-Tat: 0.88

What do the screens show for `COCCOC(=O)C1=C(C)Nc2nc3ccccc3n2C1c1sccc1C` (stereo not drawn)?
CDC25B-CDK2 inh: -2.2; HIV TAR-Tat: -2.5

Results for O=C(CSc1nnc(CSc2nc3ccccc3s2)n1-c1ccccc1)NCc1ccco1 ?
CDC25B-CDK2 inh: -1.2; HIV TAR-Tat: 0.57

What do the screens show for `CC(CCc1ccccc1)NC(=O)Cc1ccc(NC2=NC3CS(=O)(=O)CC3S2)cc1` (stereo not drawn)?
CDC25B-CDK2 inh: -0.3; HIV TAR-Tat: -1.4

Results for CCCCN1C(=O)C2C(C(=O)Nc3cccc(Cl)c3)C3C=CC2(O3)C1C(=O)NC1CCCCC1 (stereo not drawn) ?
CDC25B-CDK2 inh: 0.05; HIV TAR-Tat: -1.1

What do the screens show for `CN(CCCNS(=O)(=O)c1ccc(-c2ccc(=O)[nH]n2)s1)Cc1ccccc1`?
HIV TAR-Tat: 1.8

What do the screens show for `COC(=O)c1sc(-c2cccs2)cc1NC(=O)/C=C/C(=O)O`?
CDC25B-CDK2 inh: 0.35

How did Cc1nn(-c2cccc(F)c2)c2c1c(C)c(CCC(=O)O)c(=O)n2C do in these assays?
CDC25B-CDK2 inh: -1.2; HIV TAR-Tat: -0.71

How did COC(=O)C(C)Sc1nc2ccccc2[nH]1 (stereo not drawn) do in these assays?
CDC25B-CDK2 inh: -0.02; HIV TAR-Tat: -0.02

Results for OC[C@H](O)[C@H](O)[C@@H](O)C1Nc2ccccc2S1 (stereo partly drawn) ?
CDC25B-CDK2 inh: -0.99

Results for O=c1c2c(nc3nc(NCc4ccc(Cl)cc4)[nH]n13)CCC2 ?
CDC25B-CDK2 inh: -0.4; HIV TAR-Tat: 0.55

How did CCCC1N=C2c3ccccc3N=C(SC(C)C(=O)Nc3ccccc3)N2C1=O (stereo not drawn) do in these assays?
HIV TAR-Tat: 0.76

What do the screens show for `Cc1cc2nc(NC(=O)Nc3ccccc3)sc2cc1C`?
CDC25B-CDK2 inh: -2.2; HIV TAR-Tat: 1.3

How did O=C1CSC(c2cn(-c3ccccc3)nc2-c2ccccc2)N1Cc1ccco1 (stereo not drawn) do in these assays?
CDC25B-CDK2 inh: 0.09; HIV TAR-Tat: 0.08

Results for CCN(CC)CCSc1nnc2c3ccccc3n(CC(N)=O)c2n1 ?
CDC25B-CDK2 inh: -0.66; HIV TAR-Tat: 0.93

Results for CCOC(=O)c1c(NC(=O)C2C3C=CC(C3)C2C(=O)O)sc2c1CCC(CC)C2 (stereo not drawn) ?
CDC25B-CDK2 inh: -0.95; HIV TAR-Tat: 0.05

Results for C=C(C)COc1cc(/C=C2\N=C(c3ccc(Cl)c([N+](=O)[O-])c3)OC2=O)ccc1OC ?
CDC25B-CDK2 inh: -0.74

Results for Cc1cc(N(C)C)nc(N2CCN(C(=O)Nc3ccc(F)cc3)CC2)n1 ?
HIV TAR-Tat: 0.87

What do the screens show for `COC(=O)CNC(=O)Nc1ccc2c(c1)CCN2S(=O)(=O)c1ccccc1`?
HIV TAR-Tat: 0.97

What do the screens show for `COC(=O)CSC1=C(C#N)C(c2cccc(OC)c2)CC(=O)N1` (stereo not drawn)?
CDC25B-CDK2 inh: 0.87; HIV TAR-Tat: -0.87

What do the screens show for `CCOC(=O)C1=C(C)NC(=O)NC1c1cccs1` (stereo not drawn)?
CDC25B-CDK2 inh: -1.4

Results for O=C(O)c1ccccc1SCc1cc(=O)n2nc(-c3cccs3)sc2n1 ?
CDC25B-CDK2 inh: -2.3; HIV TAR-Tat: -0.31

What do the screens show for `N#CCS(=O)(=O)c1ccc(Cl)cc1`?
CDC25B-CDK2 inh: -0.98

Results for O=C(Cn1cnc(S(=O)(=O)N2CCc3ccccc32)c1)NC1CCCc2ccccc21 (stereo not drawn) ?
HIV TAR-Tat: 0.2

How did CCCCNc1[nH]n2c(=O)cc(C)nc2c1C(=O)OCC do in these assays?
CDC25B-CDK2 inh: 0.45

What do the screens show for `O=S(=O)(c1cc(-c2noc(C3CC3)n2)cs1)N1CCN(c2ccc(F)cc2)CC1`?
HIV TAR-Tat: 0.85

Results for Cc1noc2ncnc(NCc3ccccn3)c12 ?
HIV TAR-Tat: 0.27

What do the screens show for `C=CCOc1ccc(C2c3c(oc4cc(C)c(C)cc4c3=O)C(=O)N2CCCN2CCOCC2)cc1` (stereo not drawn)?
CDC25B-CDK2 inh: -0.95; HIV TAR-Tat: 0.77

How did CCCc1nn2c(=O)cc(COc3ccc(C)c(C)c3)nc2s1 do in these assays?
CDC25B-CDK2 inh: -1; HIV TAR-Tat: 0.19

What do the screens show for `Oc1c(C(Nc2ccccn2)c2ccncc2)ccc2cccnc12` (stereo not drawn)?
CDC25B-CDK2 inh: -0.28; HIV TAR-Tat: 0.05

How did Cc1c(CCOC(=O)CC23CC4CC(CC(C)(C4)C2)C3)sc[n+]1Cc1ccccc1 do in these assays?
CDC25B-CDK2 inh: 2.1

Results for Cc1ccc(Nc2c(-c3ccc(C)c(C)c3)c(=O)c2=O)c(C)c1 ?
HIV TAR-Tat: 2.1

What do the screens show for `CCOc1ccc(-c2noc(-c3ccco3)n2)cc1OC`?
CDC25B-CDK2 inh: -0.2; HIV TAR-Tat: 0.53

How did CCSc1ncc(CO)n1Cc1ccccc1 do in these assays?
HIV TAR-Tat: 0.37

Results for CCC(O)c1nc2ccccc2n1Cc1ccc(F)cc1 (stereo not drawn) ?
CDC25B-CDK2 inh: 0.89; HIV TAR-Tat: 2.4

Results for Clc1cccc(N2CCN(CCCNc3nn4nnnc4c4ccccc34)CC2)c1 ?
CDC25B-CDK2 inh: -2; HIV TAR-Tat: 0.81

Results for Cc1cc(Nc2cccc(Cl)c2)nc(NCc2ccccc2)n1 ?
CDC25B-CDK2 inh: -1.5

What do the screens show for `CCCSCCCNC(=O)C1CCCN(S(=O)(=O)N2CCOCC2)C1` (stereo not drawn)?
HIV TAR-Tat: 4.9

What do the screens show for `O=C(Cn1ncc2c1-c1ccccc1OC2)NCc1cccs1`?
CDC25B-CDK2 inh: -0.35; HIV TAR-Tat: 0.32

What do the screens show for `CCN(CC)S(=O)(=O)c1ccc2c(c1)OCCCO2`?
HIV TAR-Tat: 2.1

Results for CC(C)c1cc(C2CCCN2C(=O)c2cc(-c3ccccc3)no2)no1 (stereo not drawn) ?
HIV TAR-Tat: 2.2

How did CCOC(=O)CSc1nc2c(sc(=S)n2-c2ccccc2)c(=O)[nH]1 do in these assays?
CDC25B-CDK2 inh: -2.5

What do the screens show for `COc1ccc(C)cc1NS(=O)(=O)c1cc(-c2cnc(C)o2)ccc1C`?
HIV TAR-Tat: -0.13

What do the screens show for `O=C(CCNC(=O)Cn1cnc2ccccc2c1=O)NCC1COc2ccccc2O1` (stereo not drawn)?
CDC25B-CDK2 inh: -0.25

Results for Cn1c(=O)oc2cc(S(=O)(=O)CCC(=O)Nc3cccc(F)c3)ccc21 ?
HIV TAR-Tat: 0.47

Results for O=S1(=O)CCC(NS(=O)(=O)c2ccc(Cl)cc2)C1 (stereo not drawn) ?
CDC25B-CDK2 inh: 1.3

How did Nc1ccc(-c2nc3cc(N)ccc3n2-c2ccccc2)cc1 do in these assays?
CDC25B-CDK2 inh: -0.59; HIV TAR-Tat: 0.4

What do the screens show for `Cn1c(=O)c2sccc2n2c(CCCC(=O)N3CCN(c4ccccn4)CC3)nnc12`?
HIV TAR-Tat: 16

What do the screens show for `O=C(O)Cn1cnc2sc(-c3ccccc3)cc2c1=O`?
CDC25B-CDK2 inh: -0.48; HIV TAR-Tat: -1.1

What do the screens show for `NNC(=O)c1cc(C(=O)NN)cc(S(=O)(=O)O)c1`?
CDC25B-CDK2 inh: -1.2

What do the screens show for `Cc1cc(C)cc(NC(=O)CCc2c(C)nc3ncnn3c2C)c1`?
CDC25B-CDK2 inh: 0.74

How did CCCCCOC(=O)CCSc1n[nH]c(=O)[nH]c1=O do in these assays?
CDC25B-CDK2 inh: -2.1; HIV TAR-Tat: 1.4

What do the screens show for `CNC(=S)N(C)NC(=S)Nc1ccc(F)c(Cl)c1`?
CDC25B-CDK2 inh: -1.8

13 neighbouring entries from above:
What do the screens show for `CCCSCCCNC(=O)C1CCCN(S(=O)(=O)N2CCOCC2)C1` (stereo not drawn)?
HIV TAR-Tat: 4.9

What do the screens show for `O=C(Cn1ncc2c1-c1ccccc1OC2)NCc1cccs1`?
CDC25B-CDK2 inh: -0.35; HIV TAR-Tat: 0.32

What do the screens show for `CCN(CC)S(=O)(=O)c1ccc2c(c1)OCCCO2`?
HIV TAR-Tat: 2.1

Results for CC(C)c1cc(C2CCCN2C(=O)c2cc(-c3ccccc3)no2)no1 (stereo not drawn) ?
HIV TAR-Tat: 2.2

How did CCOC(=O)CSc1nc2c(sc(=S)n2-c2ccccc2)c(=O)[nH]1 do in these assays?
CDC25B-CDK2 inh: -2.5

What do the screens show for `COc1ccc(C)cc1NS(=O)(=O)c1cc(-c2cnc(C)o2)ccc1C`?
HIV TAR-Tat: -0.13

What do the screens show for `O=C(CCNC(=O)Cn1cnc2ccccc2c1=O)NCC1COc2ccccc2O1` (stereo not drawn)?
CDC25B-CDK2 inh: -0.25

Results for Cn1c(=O)oc2cc(S(=O)(=O)CCC(=O)Nc3cccc(F)c3)ccc21 ?
HIV TAR-Tat: 0.47

Results for O=S1(=O)CCC(NS(=O)(=O)c2ccc(Cl)cc2)C1 (stereo not drawn) ?
CDC25B-CDK2 inh: 1.3

How did Nc1ccc(-c2nc3cc(N)ccc3n2-c2ccccc2)cc1 do in these assays?
CDC25B-CDK2 inh: -0.59; HIV TAR-Tat: 0.4

What do the screens show for `Cn1c(=O)c2sccc2n2c(CCCC(=O)N3CCN(c4ccccn4)CC3)nnc12`?
HIV TAR-Tat: 16

What do the screens show for `O=C(O)Cn1cnc2sc(-c3ccccc3)cc2c1=O`?
CDC25B-CDK2 inh: -0.48; HIV TAR-Tat: -1.1

What do the screens show for `NNC(=O)c1cc(C(=O)NN)cc(S(=O)(=O)O)c1`?
CDC25B-CDK2 inh: -1.2

Going on with the list:
How did C/C(=C\c1cccs1)[N+](=O)[O-] do in these assays?
CDC25B-CDK2 inh: -0.75

Results for CN1CCN(c2ccccc2NC(=O)C2CCCN(c3ncnc4c3nc3n4CCCCC3)C2)CC1 (stereo not drawn) ?
HIV TAR-Tat: -0.15

Results for O=C(Cn1cncn1)c1ccccc1Cl ?
CDC25B-CDK2 inh: 0.2; HIV TAR-Tat: 1.7

How did COC(=O)c1cc2sccc2n1Cc1nc(-c2cccc(Br)c2)oc1C do in these assays?
CDC25B-CDK2 inh: 1.4; HIV TAR-Tat: 0.23

Results for CCN1CCN(c2c(-c3cc(C)c(C)cc3C)c(=O)c2=O)CC1 ?
HIV TAR-Tat: 0.81

Results for NC(=O)c1nc(-c2cccs2)nc2c1[nH]c(=O)n2-c1ccccc1 ?
CDC25B-CDK2 inh: -13; HIV TAR-Tat: 0.7

What do the screens show for `COc1ccc(-n2ccn3c(CC(C)(C)CC(=O)O)nnc3c2=O)cc1`?
CDC25B-CDK2 inh: -0.33; HIV TAR-Tat: -6

Results for CC1(C)CC(=O)C2=C(C1)Nc1ccccc1N(C(=O)NCc1ccco1)C2c1ccccc1 (stereo not drawn) ?
HIV TAR-Tat: 0.24

Results for CCS(=O)(=O)NCCc1csc2nc(-c3cccs3)nn12 ?
HIV TAR-Tat: 0.58

How did O=S(=O)(CCN(C1CCCCC1)S(=O)(=O)c1ccc(C2CCCCC2)cc1)N1CCNCC1 do in these assays?
HIV TAR-Tat: 0.73

What do the screens show for `COc1cccc(C2Nc3ccccc3C(=O)N2NS(=O)(=O)c2ccc(C)cc2)c1O` (stereo not drawn)?
CDC25B-CDK2 inh: -1.8

How did COC(=O)C(C)Oc1ccc2c(=O)c(Oc3ccc(OC)cc3)coc2c1 (stereo not drawn) do in these assays?
CDC25B-CDK2 inh: -2.3; HIV TAR-Tat: 0

What do the screens show for `COc1ccc(N2C(=O)CC(Sc3ccc(Cl)cc3)C2=O)c(OC)c1` (stereo not drawn)?
CDC25B-CDK2 inh: 1.2; HIV TAR-Tat: 0.81

What do the screens show for `O=C(O)CCCc1nc2cccnc2n1Cc1ccc(F)cc1`?
HIV TAR-Tat: -5.9

3 compounds already listed, arranged by molecular weight, smallest number first.
How did C/C(=C\c1cccs1)[N+](=O)[O-] do in these assays?
CDC25B-CDK2 inh: -0.75

Results for CCS(=O)(=O)NCCc1csc2nc(-c3cccs3)nn12 ?
HIV TAR-Tat: 0.58

Results for CC1(C)CC(=O)C2=C(C1)Nc1ccccc1N(C(=O)NCc1ccco1)C2c1ccccc1 (stereo not drawn) ?
HIV TAR-Tat: 0.24
